StopGo RLuc: Primary qHTS Assay for Foot and Mouth Disease Virus Antivirals against NCGC Sytravon and CBC Compound Libraries: Renilla Luciferase Signal | Potency, µM (top dose mostly 57.5 µM), without a hit: top-dose signal change, negative = less light | 0.32% of 120,000 active | HEK cells with a luciferase reporter of 2A StopGo recoding; active means well fitted falling curve with a large enough effect; inconclusive means small, poorly fitted or top-dose-only effect; inactive means no such curve, though single readings can be large or run the other way; further: nearly all actives have a fitted effect of over 55% in size; overnight with compound
2A firefly: Primary qHTS Assay for Foot and Mouth Disease Virus Antivirals against NCGC Sytravon and CBC Compound Libraries: Firefly Luciferase Signal | HEK cells with a luciferase reporter of 2A StopGo recoding | Potency, µM (titrated, usually from 57.5 µM), inactives show at the highest dose signal change, negative = less light | AID 1745856, 2022 | 0.23% of 120,000 active; active = well fitted falling curve with a large enough effect; inconclusive = small, poorly fitted or top-dose-only effect; inactive = no such curve, though single readings can be large or run the other way; further: nearly all actives have a fitted effect of over 60% in size; overnight with compound
An asterisk follows results filed as active; ? = inconclusive; & = joins results of further samples; [ ] = another dose, or the depositor's remark. On the % scale 0 is the no-effect control and ±100 the full control effect; potency means the concentration at half of the fitted maximal effect. Compounds as they come; about 0.55% have a hit in one of these screens.

SMILES | StopGo RLuc | 2A firefly
CCCCNCc1ccc(-c2ccc(C(=O)O)cc2)o1 | -6% | 18%
CCCCOC(=O)c1ccc(-n2nnc3c(sc4nc(C)cc(C)c43)c2=O)cc1 | -2% | 33%
CCc1ccc(Nc2cc(C)nc3nc(Cc4ccc(Cl)cc4)nn23)cc1 | ? | ?
CCC(=O)N1CCc2cc(Br)cc(S(=O)(=O)N3CCN(c4ccc(C)cc4)C(C)C3)c21 (stereo not given) | 6% | -16%
CN(C)c1ccc(NC(=O)c2ccc(C(C)(C)C)cc2)cc1 | -20% | 73%[activator]
COc1ccc(C2CC(=O)N3CN(C4CCCCC4)CSC3=C2C#N)cc1 (stereo not given) | 6% | -15%
COc1cccc(-c2nc(CS(=O)(=O)CC(=O)NCc3ccc(Cl)cc3)c(C)o2)c1 | 12% | -4%
CCOCCc1nn2c(=O)cc(COC(=O)c3ccccc3Br)nc2s1 | -9% | 6%
CCc1ccc(NC(=O)CSc2nc3c(sc4ccccc43)c(=O)n2CCCOC)cc1 | -15% | -12%
CCN(CC)C(=O)CSc1nc2cc3c(cc2c(=O)n1CCCCCC(=O)NCc1ccc(OC)cc1)OCO3 | 3% | -13%
COc1ccc(CNC(=O)c2cc(C3CC3)nc3c2c(C)nn3-c2cccc(Cl)c2C)cc1 | -13% | -14%
Cc1cc(-n2c(C)nc3ccccc3c2=O)ccc1NC(=O)c1ccc([N+](=O)[O-])cc1 | -8% | -5%
Cc1ccc(Cl)cc1N1CCN(CCCNc2ncnc3onc(-c4ccc(Cl)cc4)c23)CC1 | -8% | -17%
Cc1ccc2c(C(=O)O)cc(-c3cccnc3)nc2c1C | 99%[activator] | 0%
CCn1c(=O)n(CC)c2cc(N3CCCCC3)c(NC(=O)Nc3ccccc3C(F)(F)F)cc21 | 83%[activator] | -14%
CC(C)(C)c1ccc(C(=O)Nc2ccc(-c3nc4cc(Cl)ccc4o3)cc2)cc1 | 7% | 17%
CCOc1ccc(CC(=O)NCCc2sc3nc(-c4ccc(F)cc4)nn3c2C)cc1 | 9% | 17%
COc1cccc(CNC(=O)Cn2c(=O)c3cccn3c3ccc(F)cc32)c1OC | 97%[activator] | 86%[activator]
CC(Sc1ncnc2ccccc12)C(=O)Nc1cccc(Cl)c1Cl (stereo not given) | -15% | -6%
CNC(=O)c1nn(CN2CCN(C(c3ccccc3)c3ccccc3)CC2)c(=O)c2ccccc12 | -6% | -7%
c1csc(-c2noc(CNc3ccc(-n4cnnn4)cc3)n2)c1 | 13% | 35%[activator]
COc1cc(NC(=O)CSc2nnc(-c3ccc(C)cc3)c(=O)[nH]2)cc(OC)c1 | -8% | 23%
Cc1nn(-c2ccc(N3CCOCC3)nn2)c(C)c1CCC(=O)NCc1cccs1 | 8% | 40%[activator]
c1ccc(CNc2nc3c(-c4ccccc4)nnn3c3ccccc23)cc1 | -5% | 16%
CC(Oc1ccccc1)C(=O)OCC(=O)NC(=O)NC1CCCCC1 (stereo not given) | -2% | 10%
SMILES | StopGo RLuc | 2A firefly
COc1ccc(-c2ccc(=O)n(CCNC(=O)Cc3ccc(Cl)cc3)n2)cc1 | 0% | 5%
O=C(CSc1nccn1-c1ccc(F)cc1)Nc1nc2ccccc2s1 | 5% | 84%[activator]
O=C(O)CCc1c[nH]c2ccccc12 | 4% | 5%
Cc1nc2sc(C(=O)OCC(=O)Nc3cccc(C(F)(F)F)c3)c(C)c2c(=O)[nH]1 | -11% | -3%
O=C1OC(c2ccc(O)c(S(=O)(=O)O)c2)(c2ccc(O)c(S(=O)(=O)O)c2)c2c(Br)c(Br)c(Br)c(Br)c21 | -9% | -20%[11.5 µM]
CC(C)Oc1ccc(CNC(=O)Cc2ccc(NC(=O)N3CCSc4ncccc43)cc2)cc1 | -12% | 28%
Cc1ccccc1C(=O)N[C@@H](C)C(=O)O | -2% | -3%
O=c1cc(O)c2sc3nc(-c4cccnc4)cc(C(F)(F)F)c3c2[nH]1 | 2% | 0%
CC(C)(CNC(=O)c1cc(-c2ccccc2)no1)N1CCOCC1 | 25% | 162%[activator]
Cc1ccc(-c2cc3ccccn3c2C=O)cc1C | 54%[activator] | 238%[activator]
CC(=O)NC1=NN(C(C)=O)C(c2cccc(OCc3ccccc3F)c2)S1 (stereo not given) | 0% | 30%
COc1cc(C#N)ccc1OC(=O)c1ccc(F)cc1Cl | -2%[1.06 µM] | -12%
COC(=O)CNC(=O)Nc1c(-c2cccnc2)[nH]c2ccccc12 | 3% | 0%
Cc1cccc(OC(C)C(=O)NOCc2ccccc2)c1C (stereo not given) | -6% | -13%
CCN(Cc1ccccc1)C(=O)Nc1ccc2c(C)cc(=O)oc2c1 | -6% | 93%[activator]
CCOc1ccc(CNC(=O)CCCn2c(=O)c3cccn3c3ccc(F)cc32)cc1 | -1% | -13%
COc1ccccc1-c1c(C(F)(F)F)oc2cc(OC(C)C(=O)OC(C)C)ccc2c1=O (stereo not given) | -9% | 12%
CCCCNC(=O)CCc1c(C)nc2cc(-c3ccccc3)nn2c1C | -15% | 1.8µM*
CS(=O)(=O)c1ccc(NCc2ccccc2F)c(S(C)(=O)=O)c1 | 23% | -5%
Cc1ccc2c(=O)cc(C(=O)Nc3sc4c(c3C#N)CCCC4)oc2c1 | -9% | 5%
COc1ccc(-c2nc3ccccc3o2)cc1NC(=O)COc1ccc(C(C)(C)C)cc1 | -10% | 0%
Cc1nc2ccc(C(=O)OCC(=O)NC3CC3)cc2nc1C | 32%[activator] | 190%[activator]
CCOC(=O)c1ccc(N2C(=O)c3n[nH]c(-c4cccs4)c3C2c2ccc(C)cc2)cc1 (stereo not given) | -15% | -21%
CC(=O)c1cccc(NC(=O)CC2(C(=O)O)CCCCC2)c1 | 0% | 6%
COc1ccc(-c2c3c(=O)n(C)c(=O)n(C)c3c3n2-c2ccccc2NC3c2ccccc2OC)cc1 (stereo not given) | -10% | 10%
SMILES | StopGo RLuc | 2A firefly
COc1ccc(Br)c(C(=O)Nc2ccc3oc(=O)ccc3c2)c1 | 15% | 0%
COC(=O)c1c(N)n(-c2ccc(OC)c(Cl)c2)c2nc3ccccc3nc12 | -7% | -7%
CCOC(=O)c1c(C)oc2nc(C)nc(NCCc3ccc(OC)c(OC)c3)c12 | -12% | -8%
Cc1ccc(C(=O)OCC(=O)Nc2cccc(F)c2)cc1C | -14% | -15%
CCOCCCNC(=O)C(=O)Nc1c2c(nn1-c1ccccc1)CSC2 | -10% | -8%
Cc1ccc(N(CCC(=O)NCC2CCCO2)S(=O)(=O)c2ccccc2)cc1 (stereo not given) | 28% | -14%
Cc1ccc(CC(S)C(=O)O)cc1C (stereo not given) | 7% | 6%
CCCOc1ccc(C2c3c(oc4ccccc4c3=O)C(=O)N2c2ccc(C)cn2)cc1OCC (stereo not given) | -3% | 21%
Cc1noc(C)c1COc1ccc(CC(=O)N(CCC#N)CCN2CCOCC2)cc1 | 7% | 14%
CCOC(=O)N1CCc2c(sc3c2c(=O)n(-c2ccc(CC)cc2)c(=O)n3Cc2ccc(F)cc2Cl)C1 | -2% | 1%
Cc1cccc(C)c1OCC(=O)Nc1cccc2cccnc12 | 57%[activator] | 26%
O=C(Cn1c(-c2cscn2)nc2ccccc21)Nc1ccc(N2CCCCCC2)cc1 | -15% | -6%
CC(O)CNS(=O)(=O)c1ccc(C(=O)O)cc1 (stereo not given) | -11% | -8%
COc1ccc(-c2nc3cc(NC(=O)CC(C)C)ccc3o2)cc1Cl | -1% | 33%[activator]
CCOc1ccc(CNC(=O)c2cccn2-c2nnc(N3CCCCC3)s2)cc1OC | 39%&27%[activator] | 19%&-7%
O=C(c1cc2ccccc2oc1=O)N(Cc1ccco1)Cc1ccco1 | 16% | -7%
O=C(c1n[nH]c(=O)c2ccccc12)N1CCC(Cc2ccccc2)CC1 | ? | ?
Cc1cccc(N(C)C(CNS(=O)(=O)c2ccccc2)c2ccccc2)c1 (stereo not given) | 429%[activator] | ?
CCC(C)(C(=O)NC1CCCC1)N(Cc1cccs1)C(=O)Cc1cccs1 (stereo not given) | 35%[activator] | -1%
CC1=C(c2ccc(Cl)cc2)S(=O)(=O)N=C1N1CCN(c2cc(C)ccc2C)CC1 | 4% | -5%
Cc1cc(C)c2c(=O)n(CC(=O)Nc3ccccc3Cl)c(=O)n(C)c2n1 | 25% | 0%
CN1CCN(CC(=O)N2c3ccccc3C(=O)Nc3cccnc32)CC1 | -9%[5.77 µM] | -19%[5.23 µM]
CN(C)CCN1C(=O)C(O)=C(C(=O)c2cc3ccccc3o2)C1c1ccc(OCc2ccccc2)cc1 (stereo not given) | -16% | -1%
Cc1ccc(Cn2c(SCCC(C)C)nc3c2c(=O)[nH]c(=O)n3C)cc1 | 1% | 20%
COc1nc2ccccc2nc1N1CCC(C(=O)NCc2ccc(Cl)cc2)CC1 | ? | -7%
SMILES | StopGo RLuc | 2A firefly
COc1cc(/C=C(/C#N)C(=O)Nc2cccc(C(F)(F)F)c2)cc(OC)c1OC | 42%[activator] | 2%
CC1CCCCN1C(=O)CSc1nc(-c2cccs2)nc2ccccc12 (stereo not given) | 39%[activator] | -3%
CCC(C#CCN1CCCC1)(CC)OCCC#N | 0% | 11%
COc1ccc(NC(=O)/C=C\C(=O)N(c2ccc(C(C)C)cc2)C(C(=O)NCc2ccco2)c2ccc(C)cc2)cc1 (stereo not given) | -20% | ?
COc1cc(NC(=O)CC(C)S(=O)(=O)c2ccc3c(c2)CCN3C(C)=O)cc(OC)c1OC (stereo not given) | -11% | -14%
N#Cc1ccc(OCCBr)cc1 | 20% | 31%[activator]
CCCCN1CC(c2nc3ccccc3n2CCCCOc2ccccc2C)CC1=O (stereo not given) | ? | ?
COC(=O)C1CN(Cc2cn(Cc3ccc(C)cc3)nn2)CCS(=O)(=O)N1Cc1ccc(C)cc1 (stereo not given) | 11% | -27%
CC(C)Sc1ccc(C(=O)O)cc1 | -3% | 4%
COc1ccccc1NC(=O)CSc1nc2c(oc3ccccc32)c(=O)n1-c1ccc(C)cc1 | -12% | 11%
CCOc1ccc(C(=O)NCC(c2ccc3c(c2)OCO3)N2CCN(C)CC2)cc1 (stereo not given) | -11% | -16%
O=[N+]([O-])c1cccc(N=Cc2ccncc2)c1 | 3% | 21%
CCCn1nc(C(=O)NCc2cccc(OC)c2)c2ccccc2c1=O | 41%[activator] | 24%
Cc1c2c(=O)n(-c3ccc(Cl)cc3)[nH]c2cc(=O)n1Cc1ccc(F)cc1 | -10% | -7%
COc1ccc(NC(=O)Cc2c(C)c3ccc(O)c(C)c3oc2=O)c(OC)c1 | -16% | -20%
Cc1[nH]c2ccccc2c1C(=O)COC(=O)CCC(C)C | -14% | -8%
O=C(C1CC1)N1CCN(c2nc3c(Cl)cccc3s2)CC1 | -15% | 51%[activator]
CCOC(=O)c1c(C)c(C(=O)Nc2ccc(Cl)cc2)c(C)n1CC | 40%[activator] | 67%[activator]
Cc1ccc(-c2nn(Cc3ccccc3)cc2C(=O)N2CCN(CCO)CC2)cc1 | 91%[activator] | 0%
CC(=O)Nc1nc(C23CC4CC(CC(C4)C2)C3)cs1 | 11% | 6%
Cc1ccc2c(C)c(C(=O)Nc3cccc4cccnc34)oc2c1 | -14% | -3%
Cc1ccc(N2C(=O)CSC23C(=O)N(Cc2ccccc2F)c2ccccc23)cc1F (stereo not given) | -1% | -2%
Cc1ccc(C)c(NC(=O)CCc2c(C)[nH]n(-c3ccc(F)cc3)c2=O)c1 | 0% | 5%
CCn1c(=O)c2sccc2n(CC(=O)N(C)c2ccccc2)c1=O | -1% | 6%
CCCCCc1ccc(-c2ccc(C(C)=O)cc2)cc1 | 3% | 122%[activator]

Among those listed so far, 7 contain a cyano group.
SMILES | StopGo RLuc | 2A firefly
COc1ccc(C2CC(=O)N3CN(C4CCCCC4)CSC3=C2C#N)cc1 (stereo not given) | 6% | -15%
COc1cc(C#N)ccc1OC(=O)c1ccc(F)cc1Cl | -2%[1.06 µM] | -12%
Cc1ccc2c(=O)cc(C(=O)Nc3sc4c(c3C#N)CCCC4)oc2c1 | -9% | 5%
Cc1noc(C)c1COc1ccc(CC(=O)N(CCC#N)CCN2CCOCC2)cc1 | 7% | 14%
COc1cc(/C=C(/C#N)C(=O)Nc2cccc(C(F)(F)F)c2)cc(OC)c1OC | 42%[activator] | 2%
CCC(C#CCN1CCCC1)(CC)OCCC#N | 0% | 11%
N#Cc1ccc(OCCBr)cc1 | 20% | 31%[activator]

The results go on.
SMILES | StopGo RLuc | 2A firefly
COc1ccc(C2CC(=O)Nc3c2c(=O)nc(SC)n3C)c(OC)c1 (stereo not given) | 8% | 23%
COc1cccc(-c2nnc(SCC(=O)N(C)c3ccccc3)o2)c1 | 1% | -1%
O=C(COc1ccccc1)NCC(c1ccc(Cl)cc1)N1CCOCC1 (stereo not given) | 3% | -18%
CCOP(=O)(OCC)c1nc(-c2ccco2)oc1NCc1ccccc1Cl | 209%[activator] | 1%
CC(C(=O)NC(=O)NC1CCCCC1)n1cnc2c1c(=O)n(C)c(=O)n2C (stereo not given) | 15% | 19%
COC(=O)c1ccccc1NC(=O)c1nc(-c2ccc(C)cc2)n2c1CCCCC2 | -5% | -4%
CCOC(=O)c1c(-c2ccccc2)oc2ccc(NS(=O)(=O)c3ccc(OC)cc3)cc12 | 139%[activator] | -17%
CC1CCc2c(sc(N)c2C#N)C1 (stereo not given) | 9% | 30%
CCC(=O)Nc1nc(C)c(-c2csc(Nc3ccccc3OC)n2)s1 | -25% | -9%
